Screening data (PubChem BioAssay)
CtBP-E1A blk – inhibitors of CtBP/E1A interaction. activity change, % (concentration not given with the values). AlphaScreen GST-E1A/His-CtBP binding, 1536-well; hits give low values; control for the full effect not named in the record. 340,000 tested, 0.49% active; in the data active means activity change below about -65%; inconclusive means about -30% to -65%; inactive means above about -30%; note: % is set by controls: 0 for no effect and ±100 for the full control effect
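Homogeneous bead-based format: GST-tagged E1A captured on glutathione donor beads, His-tagged CtBP on nickel acceptor beads; compounds precede bead addition by 2 h at 37 °C.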
Six1-Eya2 inh – blocks human Six1 binding to Eya2; AID 651725; Q15475+O00167; 360,000 tested, 0.56% active; activity change, % (no concentration beside the values); AlphaScreen GST-Six1/His-Eya2 binding, biochemical; hits give low values; control for the full effect not named in the record; in the data active = activity change below about -65%; inconclusive = about -30% to -65%; inactive = above about -30%; note: % is set by controls: 0 for no effect and ±100 for the full control effect; compound concentration not given in the record
Target sequence (O00167 whole entry, looked up): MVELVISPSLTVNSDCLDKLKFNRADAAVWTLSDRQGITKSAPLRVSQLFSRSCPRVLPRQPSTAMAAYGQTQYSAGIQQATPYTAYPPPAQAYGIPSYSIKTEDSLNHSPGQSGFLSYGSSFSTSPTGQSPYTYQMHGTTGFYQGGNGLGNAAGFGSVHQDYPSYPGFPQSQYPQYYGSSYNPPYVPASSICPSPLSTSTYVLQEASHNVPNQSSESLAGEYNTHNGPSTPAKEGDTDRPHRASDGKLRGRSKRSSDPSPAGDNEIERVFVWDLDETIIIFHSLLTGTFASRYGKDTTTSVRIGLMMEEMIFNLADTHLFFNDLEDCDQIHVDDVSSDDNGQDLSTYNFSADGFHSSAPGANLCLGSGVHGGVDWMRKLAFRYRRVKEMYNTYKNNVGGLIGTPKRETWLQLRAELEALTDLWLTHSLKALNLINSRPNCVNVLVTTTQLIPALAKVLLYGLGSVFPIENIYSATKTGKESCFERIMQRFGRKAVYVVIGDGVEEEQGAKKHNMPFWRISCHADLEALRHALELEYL
Target sequence (Q15475 whole entry, looked up): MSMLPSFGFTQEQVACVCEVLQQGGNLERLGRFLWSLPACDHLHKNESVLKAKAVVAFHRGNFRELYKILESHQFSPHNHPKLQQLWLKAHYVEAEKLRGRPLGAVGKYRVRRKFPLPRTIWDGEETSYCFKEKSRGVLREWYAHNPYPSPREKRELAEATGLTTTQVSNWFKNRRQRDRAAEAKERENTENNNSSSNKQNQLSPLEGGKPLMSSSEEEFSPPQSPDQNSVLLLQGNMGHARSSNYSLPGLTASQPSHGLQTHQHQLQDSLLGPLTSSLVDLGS
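Six1/Eya2 binding was read as AlphaScreen signal after compounds were pinned into GST-Six1 plus His-tagged Eya2 (5X stock 250/500 nM) in pH 8.0 Tris/NaCl/TCEP buffer, beads added, then incubated 1 h, 37 C, dark.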
D2 PAM – human D2 receptor positive allosteric modulation | P14416 | 360,000 tested, 0.23% active | potentiation, % (concentration not given with the values) | DiscoveRx D2 beta-arrestin cells, luminescence, 90 min; 100% = 57 uM dopamine signal; active = potentiation of 50% or more; inconclusive = 30% to 50%; inactive = 30% or less;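 note: compound concentration not given in the record; tested on top of an EC20 dose of dopamine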
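D2 cells co-treated with compound plus 50 nM dopamine (EC20) for 90 min at 37 deg C to detect potentiation. Beta-arrestin recruitment was read as enzyme-fragment luminescence after 1 h at ambient temperature. Full response was set by 57 uM dopamine.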
gsp agonist – activates gsp, the McCune-Albright syndrome mutation | gsp mutant cells, cAMP HTRF, 30 min; control for the full effect not named in the record | Potency, µM (series often up to 76.9 µM), inactives show at the highest dose activation (cAMP increase), usual class: activators | 340,000 tested, 0.13% active; active = well fitted activation curve with a large enough effect; inconclusive = small, poorly fitted or top-dose-only effect, or another doubt; inactive = no such curve, though single readings can be large or run the other way; cell line not stated here;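 note: phosphodiesterase inhibitor Ro 20-1724 added with compounds to block cAMP breakdown; potency is the fitted concentration of half-maximal effect; nearly all actives have a fitted effect of over 60% in size; about a fifth of the inactives were tested at one dose only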
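Cells stably selected in G418 were plated at 2000/well, grown 16-24 hr, then given compounds in DMSO with the PDE inhibitor […] (300 uM solution added) for 30 min at 37C; cAMP was read by HTRF.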
gsp antag – gsp mutant antagonism; gsp-mutant cells, cAMP HTRF, 30 min; control for the full effect not named in the record; AID 624288; 340,000 tested, 0.4% active; Potency, µM (top dose mostly 76.9 µM), without a hit: at the highest dose activity change, negative = inhibition, most hits filed as inhibitors; active = falling curve of any shape with a large fitted effect; inconclusive = falling curve, mostly with a smaller effect; inactive = flat or rising curve; cell line not stated here;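 note: intracellular cAMP measured with PDE inhibitor Ro 20-1724 present during compound exposure; potency is the fitted concentration of half-maximal effect; % is set by controls: 0 for no effect and ±100 for the full control effect; nearly all actives have a fitted effect of over 65% in size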
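Cells in G418 medium, seeded 16-24 h, 37C; buffer exchange to DPBS + 1 mM CaCl2, 0.5 mM MgCl2, 0.05% BSA; cpds in DMSO + […] (300 uM stock), 30 min 37C; HTRF cAMP detection.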
D2 ag – human D2 receptor agonism in beta-arrestin assay; P14416; DiscoveRx PathHunter D2 beta-arrestin, luminescence, 90 min; 100% = 57 uM dopamine signal; activation, % (no concentration beside the values); 360,000 tested, 0.084% active; in the data active = activation above about 40%; inconclusive = about 15% to 40%; inactive = below about 15%; note: compound concentration not given in the record; the text of the record calls up to 30% inactive
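Agonist mode: compounds alone added to overnight-plated D2 PathHunter cells for 90 min at 37 C, with 57 uM final dopamine (EC100) defining full response. Beta-arrestin recruitment detected by chemiluminescent reagent, read after 1 h at ambient temperature.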
Starred values were filed as active, the others as inactive; u = inconclusive; x = no result given; [ ] = another dose, or the depositor's remark. These rows are one share of the data (hit frequency here may not be typical).

Fields: CtBP-E1A blk, Six1-Eya2 inh, D2 PAM, gsp agonist, gsp antag, D2 ag
> CN(C(=O)Oc1ccc(C(C)(C)C)cc1)c1ccccc1
    -13, 34, -14, 1%[15.4 µM], x, -2.5
> S=C=Nc1ccccn1
    1, 5, -3, x, 4%, -2.7
> COc1ccc(CN2CCN(c3ccccc3)CC2)c(C)c1C
    22, 11, -27, u, 14%, 9.7
> Cc1ccc(-n2c(C)cc(/C=C3/C(=O)NC(=O)N(Cc4ccco4)C3=O)c2C)cc1
    5, -19, -11, -4%[15.4 µM], -4%, -3.0
> O=c1c2ccccc2nc(Cc2ccccc2)n1-c1ccc(O)cc1
    -6, -12, 11, 5%, -5%, 1.6
> CC(C)COc1ccc(Cc2c(O)[nH]c(=S)[nH]c2=O)cc1
    -6, 9, -3, -18%[15.4 µM], 8%, 0.7
> COc1ccc(C2CC(c3c(O)n(CCc4ccccc4)c(=O)[nH]c3=O)=NN2)cc1OC (centres undefined)
    -26, -68*, -45, -28%[15.4 µM], -13%, -16
> COC(=O)C1=C(c2ccc(F)cc2OCc2ccccc2)C[C@@H]2CC[C@H]1N2C(=O)NC1CCCCC1
    0, -8, -10, -5%, -19%, -3.7
> c1ccc(CN2Cc3ccccc3-n3nncc3C2)nc1
    -5, -18, -6, 2%, x, -4.3
> Oc1ccc(Cl)cc1CN1CCN(Cc2ccccc2)CC1
    -2, -4, x, 0%, -9%, -2.3
> CCn1cc(C(=O)c2cccs2)c2ccccc21
    -7, -3, -13, u, -17%, -1.1
> COc1ccc(OC)c([C@@H](O)[C@H](C)NC(C)(C)C)c1
    -1, -2, -6, x, 0%, -2.0
> CN1CCC(O)(c2cccs2)C(C(=O)c2cccs2)C1 (centres undefined)
    -4, 3, -12, -10%[15.4 µM], -4%, -1.6
> CC(C)Oc1cc(-n2c(=S)[nH]c3ccccc3c2=O)c(Cl)cc1Cl
    -1, -3, -25, 25%, -12%, -2.3
> O=c1cc(C(F)(F)F)c2cc3c4c(c2o1)CCCN4CCC3
    70, 87, 9, 10µM*, 2%, -0.5
> CC(C)C[C@H](NP(=O)(O)O[C@@H]1O[C@@H](C)[C@H](O)[C@@H](O)[C@H]1O)C(=O)N[C@@H](Cc1c[nH]c2ccccc12)C(=O)O
    -4, 2, -2, x, 0%, -3.7
> NC(Cc1ccc(F)cc1)c1csc(Nc2ncccn2)n1 (centres undefined)
    -68*, u, -6, x, x, -4.4
> COC(=O)C1=C(c2cc3ccccc3s2)C[C@@H]2CC[C@H]1N2C(=O)NCCS(C)=O (some centres undefined)
    4, -5, -7, -36%[inhibitor], 10%, 0.9
> Cc1cc(OCC(=O)NCc2ccc(S(N)(=O)=O)cc2)c2c3c(c(=O)oc2c1)CCC3
    -2, -2, 8, u, -9%, -2.3
> O=C(Cc1ccccc1)N1CCN(Cc2ccc(F)cc2)CC1
    x, 4, -2, -18%, -1%, -1.0
> CN1C(=O)C(=Cc2ccccc2OCc2ccc(C(=O)O)cc2)C(=O)N(C)C1=O
    4, 10, -1, -15%, -10%, -1.1
> COc1ccc(OCC(=O)N2CCN(Cc3c[nH]c4ccccc34)CC2)cc1
    -1, -9, -22, -5%, 10%, -6.0
> CN(C(=O)Oc1ccc(C(=O)c2ccc(Cl)cc2)cc1)c1ccccc1
    37, 17, -14, 2%, 5%, -0.8
> O=C(Cc1ccccc1)Oc1cccc(N2C(=O)CCC2=O)c1
    3, 1, -5, -43%[inhibitor], 4%, -0.8
> CCC(=O)N1c2ccc(S(=O)(=O)CCC(=O)N3CCC4(CC3)OCCO4)cc2CC1C (centres undefined)
    18, 11, 11, -8%, 3%, 1.9
> Cc1nn(-c2ccccc2)c(Cl)c1C1C(C#N)=C(N)Oc2c1c(=O)oc1ccccc21 (centres undefined)
    -3, -2, -5, -31%[inhibitor], u, 1.9
> CCOc1cccc(=NC2CCCCC2)c2c(C)[nH]c(C)c12
    -25, u, -18, -14%[15.4 µM], u, -1.8
> CCCCCCn1c(O)c(/C=N/N2CCCCCC2)c(=O)[nH]c1=O
    0, 4, -7, 3%[15.4 µM], 5%, -0.1
> CCn1c(O)c(C=Nc2ccc(S(N)(=O)=O)cc2)c(=O)[nH]c1=S
    1, 4, -9, 27%, 30%, 1.6
> Cc1cc(/C=C2\C(=O)NC(=S)N(C)C2=O)c(C)n1C1CCCCC1
    22, -16, 5, -13%, 0%, -4.5
> CCOC(=O)C1=C(N)Oc2cc(C)oc(=O)c2C12C(=O)N1c3c(cccc32)C(C)CC1(C)C (centres undefined)
    45, 0, -1, -65%[inhibitor], -13%, -0.6
> CSc1nc(C)c(Br)c(N2CC2)n1
    -10, 8, -2, 3%, 0%, -0.3
> CC(C)C1CN1CC(O)Cn1ccnc1[N+](=O)[O-] (centres undefined)
    -10, -16, -13, x, x, -4.7
> O=C(O)C12C3CCCC1C32c1ccccc1 (centres undefined)
    9, 2, -3, 0%, 6%, -1.6
> CCC(C)C1NC(=O)C2CCCN2C(=O)C(CC(C)C)OC(=O)CCNC(=O)C(C)N(C)C(=O)C(C(C)C)N(C)C1=O (centres undefined)
    10, 10, -11, 3%, -20%, 1.4
> CC(C)CCNC(=O)c1c(N)n(CC2CCCO2)c2nc3ccccc3nc12 (centres undefined)
    17, 65, 4, -5%, -16%, -0.4
> O=C1CC(c2ccccc2)CN1 (centres undefined)
    6, 7, -8, -14%[15.4 µM], 1%, -3.0
> CC(NC(=O)Cc1cccc2ccccc12)C(=O)N1CCC(=O)CC1 (centres undefined)
    1, 1, -7, 22%, 6%, -3.7
> Cc1ccc(/C=C2\C(=O)NC(=S)N(c3ccccc3F)C2=O)s1
    16, -1, -30, -21%, -4%, -6.4
> CC1CC(C)(O)CC(C(O)CC2CC(=O)NC(=O)C2)C1=O (centres undefined)
    -6, 7, -16, u, 8%, -2.0

Molecules from the list above containing a thiophene ring, fused or not:
Fields: CtBP-E1A blk, Six1-Eya2 inh, D2 PAM, gsp agonist, gsp antag, D2 ag
> CCn1cc(C(=O)c2cccs2)c2ccccc21
    -7, -3, -13, u, -17%, -1.1
> CN1CCC(O)(c2cccs2)C(C(=O)c2cccs2)C1 (centres undefined)
    -4, 3, -12, -10%[15.4 µM], -4%, -1.6
> COC(=O)C1=C(c2cc3ccccc3s2)C[C@@H]2CC[C@H]1N2C(=O)NCCS(C)=O (some centres undefined)
    4, -5, -7, -36%[inhibitor], 10%, 0.9
> Cc1ccc(/C=C2\C(=O)NC(=S)N(c3ccccc3F)C2=O)s1
    16, -1, -30, -21%, -4%, -6.4

Later entries.
Fields: CtBP-E1A blk, Six1-Eya2 inh, D2 PAM, gsp agonist, gsp antag, D2 ag
> CC(C)(C)c1ccc(O)c(N=Cc2c(O)ccc3ccccc23)c1
    -2, -5, -2, -13%, -12%, 0.3
> CC(=NCCCn1ccnc1)c1c(O)n(C)c(=O)n(C)c1=O
    2, 1, -7, 5%, 12%, -0.2
> N#Cc1ccc(C(=O)N2Cc3cnnn3-c3ccccc3C2C#N)cc1 (centres undefined)
    5, 5, -5, x, -1%, -1.2
> Fc1ccc(CNCCc2ccc3c(c2)OCO3)cc1
    x, 3, -32, 4%, 12%, 0.7
> CC1CCN(C(=O)N2c3ccccc3Sc3ccccc32)CC1
    3, -6, -5, -25%, -22%, -1.3
> CCC(=O)Nc1ccc(N2CCN(CC)CC2)c(Cl)c1
    4, 5, -10, 4%, 14%, -2.8
> CC1CCN(CC(=O)c2cccc(C(F)(F)F)c2)CC1
    -2, 2, -14, 15%, 17%, -2.0
> CC(C)(C#CC(=O)O)OOC(c1ccccc1)(c1ccccc1)c1ccccc1
    x, -6, -3, -5%, -12%, -3.7
> C[C@]12CC[C@@H](O)C[C@H]1CC[C@@H]1[C@@H]2CC[C@]2(C)C(=O)CC[C@@H]12
    -15, 5, -2, x, 26%, -2.9
> CC(C)c1ccc(O)c(CN2CCN(c3ccccc3)CC2)c1
    -5, -16, -38, 15%, -10%, -0.9
> C[C@]12CCC3C(CC[C@H]4C[C@H](O)CC[C@]34C)C1CCC2=O (some centres undefined)
    6, 0, -1, -6%, -8%, 4.9
> COc1ccc(-n2c(C)cc(C(=O)C[N+]34CCN(CC3)CC4)c2C)cc1
    -11, -19, -8, 28%, 7%, -1.4
> CCN(CC)c1ccc(CC2C(=O)N(C)C(=O)N(C)C2=O)cc1
    -2, -24, -4, 5%, -5%, 2.8
> Cc1nc2ccccc2c(=O)n1-c1ccc(-c2ccccc2)cc1
    3, 11, 12, 26%, u, -1.2
> COc1cccc(NP2(=O)OCC(C)([N+](=O)[O-])CO2)c1 (centres undefined)
    -2, 6, -5, -1%, 3%, 0.7
> CCOCCSc1nc2c(c(-c3cccs3)c1C#N)CC/C2=C/c1cccs1
    28, 22, -7, u, 6%, 1.9
> CCCc1c(C)nc(SCC(=O)C(C)(C)C)nc1OC(=O)N(C)C
    -2, 4, 5, 6%[15.4 µM], 4%, 5.5
> N#CCCn1cc(C(=O)Nc2ccc([N+](=O)[O-])cc2)c(-c2ccc3c(c2)OCCO3)n1
    -6, -8, -8, 7%, 0%, -2.2
> O=[N+]([O-])c1ccc(NCCO)c2ncccc12
    11, -14, -23, -5%[15.4 µM], -4%, -5.4
> Cc1ccsc1C(=O)C1CCCN(Cc2c(C)nn(C(C)C)c2C)C1 (centres undefined)
    1, 4, -12, -20%, 7%, -2.2
> CCOC(=O)C1=C(N)Oc2ccccc2C12C(=O)N(CC(=O)OC)C(CC(=O)OC)=C2C(=O)OC (centres undefined)
    6, 7, 3, 13%, 8%, 3.2
> COc1cc(C2c3cc4c(c(O)c3CC3COC(=O)C32)OCO4)cc(OC)c1OC (centres undefined)
    -10, 0, -9, 9%, 9%, -1.1
> CN1CCCN(C(=O)COc2ccccc2)CC1
    10, 1, -8, u, 9%, 1.9
> C=CCn1c(O)c(/C=C2\C=Nc3ccccc32)c(=O)[nH]c1=O
    2, 7, -5, 22%, 7%, -3.6
> Cc1cccc(-n2c(O)c(C=NCCCN3CCOCC3)c(=O)[nH]c2=O)c1C
    -1, 6, -15, 25%, 3%, 0.1
> CC/C(CC(c1ccccc1)c1c(O)c2ccccc2oc1=O)=N\NC(N)=S (centres undefined)
    -2, -8, x, -3%, 5%, 9.8
> CN1CCN(CCC(C#N)(c2ccccc2)c2ccccc2)CC1
    2, -8, -33, -11%, 9%, -3.7
> N#Cc1ccc(/C=C/C(=O)O)cc1
    x, 8, -9, -12%, 8%, -1.9
> CC12CN3CC(C)(CN(C1)C3c1cccs1)C2=O (centres undefined)
    13, -16, -7, -5%[15.4 µM], 17%, -1.2
> O=C1NC(=S)NC(=O)C1Cc1ccccc1
    -4, 2, -13, 11%, -2%, -3.1
> COc1ccc(C(=O)C2CCCN(C3CSCCSC3)C2)c(OC)c1 (centres undefined)
    -2, -9, -18, 4%, -3%, 2.0
